# Screening results (PubChem BioAssay)
# Calb biofilm kill – clotrimazole potentiators killing C. albicans biofilm, primary screen, 4-compound mixtures | 0.02% of 120,000 active | C. albicans biofilm persisters + clotrimazole, fluorescence viability; primary screen in compound mixtures of four per well | inhibition, % at 7.6 µM;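 active means inhibition above 30.3% in the primary screen of four-compound pools, then above 30% when the compound was retested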;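 further: compounds exposed to preformed 24 h biofilms for 48 h; the number belongs to the whole pool; some results filed as inactive read as strong as hits; inactives centre near 12; 0% = biofilm with clotrimazole alone and 100% = kill control; retested singly at about 60 µM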
#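 Probe or stimulus – Clotrimazole 50 µg/mL co-treatment · System – C. albicans biofilms · Schedule – 24 h biofilm formation, then 48 h compound exposure, 37 °C · Evaluation – percent inhibition of biofilm viability · Technique – 2-h Alamar Blue fluorescence, 535/590 nm excitation/emission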
# * hit, by the source's call; & = joins results of further samples.
# Start of the data: the first seven records, ahead of the listing:
SMILES,Calb biofilm kill
CCN1C(=O)/C(=C\c2ccc(-c3ccc([N+](=O)[O-])cc3OC)o2)SC1=Nc1cccc(C(=O)O)c1,17
Cc1nn(C)c(Cl)c1CN1CCN(CC(C)C)C(CCO)C1 (stereo not drawn),14
Cc1nn(Cc2ccc(C(=O)NN)o2)c(C)c1Cl,19
Cc1sc(NC(=S)NC(=O)C2CCCCC2)c(C(N)=O)c1C,-14
Cc1ccc2c(c1)c(C1=NC(=S)NC1=O)c(O)n2C,18
CCN(C(=O)COC(=O)c1cn(-c2ccccc2)nc1-c1ccccc1)C1CCS(=O)(=O)C1 (stereo not drawn),5
CCc1nccn1Cc1cc(C=O)ccc1OC,-3

# The whole of this part, repeating the preview:
SMILES,Calb biofilm kill
CCN1C(=O)/C(=C\c2ccc(-c3ccc([N+](=O)[O-])cc3OC)o2)SC1=Nc1cccc(C(=O)O)c1,17
Cc1nn(C)c(Cl)c1CN1CCN(CC(C)C)C(CCO)C1 (stereo not drawn),14
Cc1nn(Cc2ccc(C(=O)NN)o2)c(C)c1Cl,19
Cc1sc(NC(=S)NC(=O)C2CCCCC2)c(C(N)=O)c1C,-14
Cc1ccc2c(c1)c(C1=NC(=S)NC1=O)c(O)n2C,18
CCN(C(=O)COC(=O)c1cn(-c2ccccc2)nc1-c1ccccc1)C1CCS(=O)(=O)C1 (stereo not drawn),5
CCc1nccn1Cc1cc(C=O)ccc1OC,-3
COc1ccc(C(=O)Nc2ccc(C(=O)NCCc3ccccc3)cc2)cc1,27
O=[N+]([O-])c1ccc(N2CCN(C(=S)Nc3ccc(F)cc3)CC2)cc1,18
COc1cc(/C=C/C(=O)OCC(=O)NCCN2C(=O)CSC2=O)ccc1OC(F)F,10
O=C(CCCSc1nc2ccccc2[nH]1)NCc1ccccc1Cl,7
Cc1cccc(SC2CCN(Cc3nc(CC4CC4)no3)CC2)c1,5
COc1ccc(CCNC(=O)C(C(=O)c2ccccc2)n2ccccc2=O)cc1OC (stereo not drawn),12
Cn1nnnc1SCCNCc1ccccc1OCc1ccc(F)cc1,6
O=C(/C=C/c1cccs1)Nc1scc(-c2ccccc2)c1C(=O)O,14
CCC1CCCCN1C(=S)NC1CCCCC1 (stereo not drawn),13
O=[N+]([O-])c1cc2c(c(CSc3nnc4ccccn34)c1)OCOC2,-5
O=C(c1ccncc1)c1ccc(N2CCN(C3CC(=O)N(Cc4cccs4)C3=O)CC2)cc1 (stereo not drawn),3
Cc1ccccc1N=C1N=C(N)c2ccccc21,14
Cc1cc(C)cc(NC(=O)CSc2nc(CSc3ccc(Cl)cc3)cc(=O)[nH]2)c1,8
N=c1sccn1CC(=O)Nc1cc(Cl)ccc1[N+](=O)[O-],9
O=S(=O)(NCCC1CC1(Cl)Cl)c1ccccc1 (stereo not drawn),13
CCOc1ccc(N(CCCCO)C(=S)NC(=O)c2ccc(C)c(Br)c2)cc1,1
OC(COc1ccccc1)CN1CCN(CC(O)COc2ccccc2)CC1 (stereo not drawn),13
CCC(=O)N1CC2(CC(c3cccc(NC(=O)CC(c4ccccc4)c4ccccc4)c3)=NO2)C[C@H]1C(N)=O (stereo partly drawn),5
Cc1ccc(S(=O)(=O)NNC(=O)c2cc(C)cs2)cc1,12
O=C(/C=C/c1ccccc1[N+](=O)[O-])NCCCn1ccnc1,16
O=C(CCCN1C(=O)/C(=C\c2ccco2)SC1=S)Nc1ccc2ccccc2c1,15
COCCn1c(SCC(=O)Nc2cc(C)on2)nc2c(c1=O)SC(C)C2 (stereo not drawn),36
CC(C)OC(=O)CSc1nc2cc3c(cc2cc1C#N)OCO3,8
Cc1cc(NCc2ccncc2)ccc1Br,8
O=C(NCc1cccnc1)c1cc2nc(-c3ccc4c(c3)OCO4)cc(C(F)(F)F)n2n1,2
Cc1cc(C)c(/C=N/NC(=O)c2nnn(-c3nonc3N)c2COc2ccc(F)cc2)c(C)c1,22
Cc1cc(/C=N/NC(=O)c2ccsc2)c(C)n1-c1cnccn1,15
CN1C(=O)C(CCC(=O)O)NC1=S (stereo not drawn),12
N#CC1=C(N)C2=CCCC[C@H]2[C@H](c2cccc(F)c2)C1(C#N)C#N,9
COc1ccccc1NC(=S)N1CCC(C(=O)c2ccc(F)cc2)CC1,4
C[C@H](NC(=O)c1nc[nH]c1C(=O)NC1CCN(C(=O)OC(C)(C)C)CC1)C(=O)OC(C)(C)C,13
CC1=NN(C(=O)COc2ccccc2)C(O)(c2ccccc2)C1 (stereo not drawn),15
CCC(C(=O)Nc1cccc(C(=O)O)c1C)c1ccccc1 (stereo not drawn),-7
C=C(C)C1CC=C(C)/C(=N/Nc2ccccc2[N+](=O)[O-])C1 (stereo not drawn),17
Cc1cc(-c2n[nH]c(=S)n2-c2ccc(C)c(C)c2)no1,9
Cc1c(-n2c(SCC(=O)NC(C)C)nc3ccccc3c2=O)c(=O)n(-c2ccccc2)n1C,14
CCc1ccccc1NC(=S)N(CCOC)C(C)c1ccco1 (stereo not drawn),14
Cc1ccc(S(=O)(=O)NN2C(=O)c3ccccc3NC2c2ccccc2)cc1 (stereo not drawn),0
COC(=O)[C@@]1(C)CC[C@]2(C)CC[C@@]3(C)C(=CC(=O)C4[C@@]5(C)CC[C@H](O)C(C)(C)[C@@H]5CC[C@]43C)[C@H]2C1 (stereo partly drawn),14
Cc1cccc(C)c1Nc1nnc(SCC(=O)NC2CCS(=O)(=O)C2)s1 (stereo not drawn),12
NC(=O)CC(NC(=O)c1ccccc1)c1ccc(NCc2ccccc2)c([N+](=O)[O-])c1 (stereo not drawn),16
CC(C)CC1NC(=O)N(CC(=O)Nc2ccc3c(c2)CCC3)C1=O (stereo not drawn),6
Cc1ccc(-c2nnc(N3CC(C)OC(C)C3)c3ccccc23)cc1 (stereo not drawn),13
Cc1nc(C(=O)NC2CCCCC2)sc1C1(C)CC(c2cccc([N+](=O)[O-])c2)=NO1 (stereo not drawn),11
O=C(NCc1ccco1)C1CCC(N2C(=O)C3C4CCC(C4)C3C2=O)CC1 (stereo not drawn),12
CCN1C(=C(C#N)C#N)C=Cc2ccccc21,17
COC(CN(C(=O)CCl)C(C(=O)NC1CCCCC1)c1ccc(C)cc1)OC (stereo not drawn),14
Cc1nc2ccc(NC(=O)Cc3c(F)cccc3Cl)cc2s1,20
COc1ccc(Nc2nc(N)nc(CSc3nccn3C)n2)cc1,23
CCOC(=O)c1ccc(NC(=S)NN)cc1,16
COc1cccc(-c2nc(COc3ccc(Cl)cc3Cl)no2)c1,19
O=C(Nc1ccccc1)C1=C[C@@H](C2CCCCC2)C[C@@H](OCc2ccc(CO)cc2)O1,18
O=C(Nc1ccc(Cl)cc1)Nc1ccccc1CC[N+](=O)[O-],14

# No new results follow: 4 of the compounds above.
SMILES,Calb biofilm kill
Cc1ccccc1N=C1N=C(N)c2ccccc21,14
Cc1cc(C)cc(NC(=O)CSc2nc(CSc3ccc(Cl)cc3)cc(=O)[nH]2)c1,8
N=c1sccn1CC(=O)Nc1cc(Cl)ccc1[N+](=O)[O-],9
O=S(=O)(NCCC1CC1(Cl)Cl)c1ccccc1 (stereo not drawn),13

# In the list so far, four contain an NH in an aromatic ring:
SMILES,Calb biofilm kill
O=C(CCCSc1nc2ccccc2[nH]1)NCc1ccccc1Cl,7
Cc1cc(C)cc(NC(=O)CSc2nc(CSc3ccc(Cl)cc3)cc(=O)[nH]2)c1,8
C[C@H](NC(=O)c1nc[nH]c1C(=O)NC1CCN(C(=O)OC(C)(C)C)CC1)C(=O)OC(C)(C)C,13
Cc1cc(-c2n[nH]c(=S)n2-c2ccc(C)c(C)c2)no1,9

# Continued.
SMILES,Calb biofilm kill
COc1cc2c(-c3ccccc3O)nc3c(c(C)nn3-c3ccccc3)c2cc1OC,7
CCC1(C)Cc2c(sc(NC(=S)NC(=O)c3ccccc3)c2C#N)CO1 (stereo not drawn),16
CC1(C)CC2c3cccc(C(=O)O)c3C(=O)N2c2c1ccc1ccccc21 (stereo not drawn),9
CN(C)CCN(Cc1ccccc1)S(=O)(=O)c1ccc2c(c1)n(C)c(=O)c(=O)n2C,13
COc1ccc(N=c2scc(C)n2CCCN2CCCC2=O)cc1,4
Cc1cccc(NC(=S)NNC(=O)c2ccc3c(c2)OCO3)c1,-12
O=C(NC(=S)N1CCN(c2nc(-c3ccccc3)cs2)CC1)c1cccnc1,6
O=C(Nc1cccc(Cl)c1)OC1CCCCc2cccnc21 (stereo not drawn),24
CCOc1ccc(-n2c(CCc3ccccc3)n[nH]c2=S)cc1,22
CC(C)CC(=O)c1c[nH]c(C(=O)N2CCN(Cc3ccccc3)CC2)c1,7
CC(=O)Nc1ccc(C2=NNC(=Nc3cccc(S(=O)(=O)N(C)C)c3)SC2)cc1,12
Cc1cc(C)nc(NC(=O)C2c3ccccc3Oc3ccccc32)n1,16
Cc1cccc(-n2c(O)c(C=Nc3ccc(O)cc3)c3ccccc3c2=O)n1,14
COc1ccc(C2=NN(c3ccccc3)C(c3cccs3)C2)cc1 (stereo not drawn),11
COc1nc(NC(C)C)nc(N(C#N)CN2C(=O)c3ccccc3S2(=O)=O)n1,5
CCn1c(O)c(N=NC(=O)c2cccnc2)c2cc(Br)ccc21,13
COc1cccc(C(=O)NC(=S)Nc2cccnc2)c1,11
COC(=O)c1cn(NC(=O)Cc2cccc(OC)c2)c(=O)c2ccccc12,19
Cc1oc2cc(O)ccc2c(=O)c1-c1ccccc1,22
O=[N+]([O-])c1ccc(N2CCN(C(=S)NCc3ccc(Cl)cc3)CC2)cc1,2
C[N+]1(CCCCSc2ccc(O)cc2)CCCCC1,12
Cc1ccc(OC/C(=N\O)C(C)(C)C)c([N+](=O)[O-])c1,12
O=C(c1cc2cc(Br)ccc2o1)N1CCCCC1,12
CCC/C(O)=N\S(=O)(=O)c1ccc(N=NN(C)C)cc1,11
CC/C(C)=N\Nc1nc(-c2cc3cc(OC)ccc3oc2=O)cs1,24
Cc1cc(C)cc(NCCC#N)c1,9&12
Cn1c(=O)n(C)c2cc(S(=O)(=O)NCC(=O)O)ccc21,12
Cc1nn(Cc2cccc(C(=O)Nn3cc([N+](=O)[O-])cn3)c2)c(C)c1[N+](=O)[O-],10
CC1CCCCN1C(=O)/C=C/c1ccccc1[N+](=O)[O-] (stereo not drawn),-3
C/C(CS(=O)(=O)c1ccc(Cl)cc1)=N/NC(N)=S,2
Cc1sc(NC(=O)C2C3C=CC(C3)C2C(=O)O)c(C(N)=O)c1-c1ccc(C(C)C)cc1 (stereo not drawn),6
CCCOc1ccc(Br)cc1/C=N/NC(=O)c1cc(OC)c(OC)c(OC)c1,11
COc1ccc2ccc(=O)oc2c1CC=C(C)C,13
Cc1ccc(NS(=O)(=O)c2cc(OCC(N)=O)c(C)cc2Cl)cc1C,12
CCCCCc1c(O)nc(SCC(=O)NCC2CCCO2)[nH]c1=O (stereo not drawn),7
Cc1csc(SCC(=O)NCc2ccc3c(c2)OCO3)n1,19
COCCCNC(=S)Nc1cccc(SC)c1,1
CCOc1ccccc1NC(=O)C(Sc1nnc2ccccn12)c1ccccc1 (stereo not drawn),13
O=C(O)CSCC(=O)N1CCCCC1,14
Cc1ccc(NC(=S)N(Cc2ccco2)C2CCN(C(C)C)CC2)cc1,19
COc1ccc(S(=O)(=O)NCc2ccc(C(=O)O)cc2)cc1,17
CC(C)(C)c1ccc(C(=O)NC(=S)NNC(=O)c2cccs2)cc1,21
O=C(Cn1c(=O)oc2cccnc21)Nc1ccccc1Oc1ccc(Cl)cc1Cl,10
CC(=O)N(Cc1ccccc1C)c1cccc(C)c1C,5
CCNC(=S)NCc1ccc2c(c1)OCO2,7
COc1ccc(NC(=O)C(CCSC)NC(N)=O)cc1Cl (stereo not drawn),19
CC(C)(C)C(=O)/C=c1\s/c(=C\c2ccc(-c3ccc([N+](=O)[O-])cc3)o2)c(=O)n1CC(=O)NC(N)=O,8
CNC(=O)NC(=O)C(C)OC(=O)c1cc2c(s1)CCCCC2 (stereo not drawn),10
CN(C#N)c1nccc(-c2cccs2)n1,-4
CCCCSc1nc(C)cc(SCC(=O)N/N=C/c2ccccc2)n1,17
Cc1ccc(C2=NN(C(=O)CSc3nc(N)cc(N)n3)C(c3ccco3)C2)cc1 (stereo not drawn),13
CSc1nnc(-c2cc(-c3ccc(C)cc3)nc3ccccc23)o1,11
O=C(Cn1cnc2cc([N+](=O)[O-])ccc2c1=O)NC(=O)NCc1ccccc1,-5
ClC(/C=N/n1cnnc1)=C/c1ccccc1,24
COc1ccc(OCC(O)Cn2cnc(-c3ccc(Br)cc3)c2)cc1 (stereo not drawn),6
S=C(NCc1ccco1)N1CCN(c2nc(-c3ccccc3)cs2)CC1,20
Clc1ccccc1CSc1ncn(-c2ccccc2)n1,-6
CCOC(=O)c1ccc(CN(Cc2ccccc2)S(=O)(=O)c2cccc([N+](=O)[O-])c2)cc1,15
COC(=O)CCCCCCCCC(O)CN1CCCCC1 (stereo not drawn),6
O=C(COc1ccc(Br)cc1Br)NC1CCCC1,5
NNC(=O)c1ccc(Cn2cc(Br)c(N)n2)cc1,14
O=C(CC12CC3CC(CC(Br)(C3)C1)C2)Nc1cccc(S(=O)(=O)NC2=NCCC2)c1,19

# Not all compounds are listed; rates above refer to the full screens.
